Rango dissoc inh – inhibitors of RanGTP-induced Rango-importin beta complex dissociation. Biochemical FRET Rango-importin beta, RanGTP-induced dissociation. 0.071% of 340,000 active. Potency, µM (highest dose often 46.1 µM), inactives show top-dose activity change, negative = inhibition. AID 540253. O95149+P62826; active means falling FRET ratio curve, often poorly fitted, with flat reads before Ran was added; inconclusive means other falling curves, or compound fluorescence or quenching; inactive means flat or rising ratio curve;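 note: potency is the fitted concentration of half-maximal effect; % of control where 0% means no effect; nearly all actives have a fitted effect of over 45% in size; -100% = wells without RanGTP and RCC1; the record marks most hits as doubtful in a second field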
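Quantitative HTS using a FRET biosensor: 0.1 uM Rango, 0.25 uM importin beta, 0.6 uM Ran, 2 mM GTP, 0.2 uM RCC1 final, PBS with DTT, Tween-20 and BSA. Post-read taken 45 min after Ran addition.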
miR-21 reporter – miR-21 reporter, rising signal; HeLa miR-21 FLuc reporter, luciferase, 48 h; Potency, µM (titrated, usually from 38.3 µM), for inactives: top-dose reporter change, positive = more light; 340,000 tested, under 10 active; AID 2288; active = well fitted rising curve with a large enough effect; inconclusive = small, poorly fitted or top-dose-only effect; inactive = no such curve, though single readings can be large or run the other way;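 note: % of control where 0% means no effect; miR-21 action dims this reporter so a rising signal means less miR-21 action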
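Compounds were titrated across several concentrations (up to approximately 40 uM) and incubated 48 hours with HeLa miR-21-FLuc reporter cells (miR-21 target sequence downstream of FLuc, endogenous miR-21). Readout was firefly luciferase luminescence after lytic detection reagent.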
GLA inh pH 4.5 – inhibitors of human alpha-galactosidase A at pH 4.5 | P06280 | purified enzyme, 4-MU-alpha-Gal fluorescence, pH 4.5 | activity change, negative = inhibition, % at 105 µM | 230,000 tested, under 10 active; inconclusive = small, poorly fitted or top-dose-only inhibition, or a rising curve; inactive = flat fitted curve, though single readings scatter; no compound was filed as active;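 note: 0% = full activity with enzyme and -100% = basal without enzyme; dose as in the result columns while the protocol names 77 µM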
Rango complex inh – prevents formation of the Rango-importin beta complex | 0.031% of 340,000 active | Rango CFP/YFP FRET sensor + importin beta, 45 min | Q14974 | Potency, µM (doses to about 92.2 µM), for inactives: at the top dose inhibition of complex formation; active = rising FRET ratio curve, often small or poorly fitted; inconclusive = mostly compound fluorescence or quenching in the first reads; inactive = flat curves in all reads;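 note: potency is the fitted concentration of half-maximal effect; 0% = DMSO wells and 100% = buffer wells lacking importin beta; nearly all actives have a fitted effect of over 15% in size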
Target sequence (Q14974 whole entry, looked up): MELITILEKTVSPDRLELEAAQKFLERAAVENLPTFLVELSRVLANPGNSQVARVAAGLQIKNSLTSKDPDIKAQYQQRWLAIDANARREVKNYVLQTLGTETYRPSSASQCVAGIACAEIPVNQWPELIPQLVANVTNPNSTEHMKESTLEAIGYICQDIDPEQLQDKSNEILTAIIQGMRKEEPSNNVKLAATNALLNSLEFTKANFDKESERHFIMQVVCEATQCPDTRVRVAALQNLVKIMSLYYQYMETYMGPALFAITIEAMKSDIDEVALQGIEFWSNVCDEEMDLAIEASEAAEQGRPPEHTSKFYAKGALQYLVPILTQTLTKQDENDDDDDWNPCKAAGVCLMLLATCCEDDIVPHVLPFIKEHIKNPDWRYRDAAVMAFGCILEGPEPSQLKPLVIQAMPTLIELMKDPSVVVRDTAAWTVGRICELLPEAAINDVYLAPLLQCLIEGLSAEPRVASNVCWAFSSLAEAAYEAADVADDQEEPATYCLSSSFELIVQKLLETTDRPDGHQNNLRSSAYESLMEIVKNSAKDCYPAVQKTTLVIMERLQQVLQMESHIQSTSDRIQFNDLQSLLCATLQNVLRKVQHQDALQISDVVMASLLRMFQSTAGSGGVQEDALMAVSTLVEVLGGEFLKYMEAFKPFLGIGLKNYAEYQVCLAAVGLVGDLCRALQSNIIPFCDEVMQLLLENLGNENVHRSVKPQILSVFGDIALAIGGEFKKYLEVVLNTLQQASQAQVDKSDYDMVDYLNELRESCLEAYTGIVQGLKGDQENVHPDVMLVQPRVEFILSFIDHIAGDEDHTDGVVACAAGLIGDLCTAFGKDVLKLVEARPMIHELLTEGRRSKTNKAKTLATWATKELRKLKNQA
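FRET biosensor Rango (snurportin 1 IBB between N-terminal EYFP and C-terminal Cerulean), 50 nM in PBS/1 mM DTT/0.02% Tween-20/0.1% BSA, preincubated 5 min RT with compound; 0.125 microM importin beta added, 45 min RT, CFP/YFP FRET ratio read.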
* hit, by the source's call; ? = inconclusive; . = not tested or not shown; & = joins results of further samples.

Every second line gives: Rango dissoc inh	miR-21 reporter	GLA inh pH 4.5	Rango complex inh
> CCCn1c(C)cc(C(=O)COC(=O)c2nccnc2N)c1C
 : -15%	-28%	-1	-0.7%
> O=C(NCSc1ccccc1)c1ccccc1
 : -4%	.	.	2.8%
> O=c1c2c(-c3ccco3)csc2nc(SCc2cn3cccnc3n2)n1-c1ccccc1
 : -6%	-48%	1	-3.1%
> CSCCC(NC(=O)C1CCC(C)CC1)C(=O)OCC(=O)c1ccc(Cl)cc1 (centres undefined)
 : 2%	-1%	3	1.3%
> CC1CCCC(C)N1/N=C/c1ccc(O)cc1 (centres undefined)
 : -12%	-5%	.	10%
> OC1(c2ccc(F)cc2)CSC(=Nc2cccnc2)N1Cc1ccco1 (centres undefined)
 : 0%	13%	-3	3.6%
> O=C(CC1C(=O)NCCN1Cc1ccoc1)NCCc1ccc(Cl)cc1 (centres undefined)
 : 0%	-1%	2	-0.8%
> CN1CCN(C(=S)c2ccc(Cl)cc2)CC1
 : -7%	-7%	-1	-3.3%
> CC(C(=O)NCCN1CCOCC1)(c1ccccc1)c1ccccc1
 : 5%	-1%	4	0.2%
> CCn1c(C(=O)O)c(CC(=O)Nc2ccccc2OC)c2ccccc21
 : 1%	-2%	.	0.1%
> CSc1nsc(SC)c1C(=O)N1CCN(S(=O)(=O)c2ccc(C)cc2)C1C(C)C (centres undefined)
 : 2%	5%	-3	7.8%
> C/C(=N\NC(=O)c1cccc(S(=O)(=O)Nc2ccccc2Cl)c1)c1ccc(-n2ccnc2)cc1
 : 7%	2%	0	3.6%
> COc1ccc(/C=C/C(=O)Nc2ccc(OC)nc2)cc1
 : -4%	-13%	-5	-1.5%
> COc1ccc2[nH]c3nc(SCC(=O)NNC(=O)c4ccc(OC)c(OC)c4)nnc3c2c1
 : 29%	-5%	0	-1.2%
> COc1ccc(C(CCN2CCOCC2)c2c(O)cc(OC)cc2OC)cc1 (centres undefined)
 : -11%	-3%	1	1.9%
> COc1ccc(NC(=O)c2nc3nc(C)cc(C(F)F)n3n2)cc1OC
 : -5%	-11%	9	0.6%
> CC(C)(C)c1ccc(C(=O)NNC(=S)NCc2ccco2)cc1
 : 2%	-27%	-9	0.4%
> COCCN(CC1CCCN(C2Cc3ccccc3C2)C1)C(=O)CSC (centres undefined)
 : -3%	0%	.	2.4%
> CCN(CC)C(=O)[C@H]1C[C@H](CC(=O)NCc2ccc(OC)c(OC)c2)C(=O)N2CCc3c([nH]c4cc(CCC(=O)N(C)C)ccc34)[C@]12C
 : 0%	.	.	-2.4%
> COc1ccc(OC)c2c(C)c(C)[nH]c12
 : -16%	1%	-1	2.1%
> CC(C)OP(=O)(c1ccc(N(C)C)cc1)C(O)c1ccccc1 (centres undefined)
 : -6%	-7%	3	0.1%
> O=C(O)c1ccccc1CSc1ncccc1C(=O)O
 : 7%	-1%	7	1.0%
> CCN(C(=O)CSc1nc2scc(-c3ccccc3)c2c(=O)n1N)C1CCS(=O)(=O)C1 (centres undefined)
 : 21%	.	.	3.1%
> CC1CCN(CCC(=O)Nc2ccc3c(c2)OCCO3)CC1
 : .	-7%	-3	.
> Cc1ccc(NC(=O)OCc2cncs2)cc1
 : -5%	-53%	5	-2.1%
> CCOC(=O)CN1C(=O)N[C@@H](c2cccc(C(F)(F)F)c2)C(C(=O)OC)=C1C
 : -8%	.	3	-3.1%
> COc1cc(NC(=O)Nc2ccc(Cl)c(Cl)c2)c(C(=O)O)cc1OC
 : 3%	-8%	-2	?
> O=C(Nc1cccc(-c2nc3ncccc3o2)c1)c1sc2cc(Cl)ccc2c1Cl
 : 3%	-11%	-2	5.5%
> CCCCCCCCCC[n+]1cccc2c3ccccc3ccc21
 : 1%	30%	18	-4.2%
> COc1cc(/C=C2\C(=N)N3N=CSC3=NC2=O)ccc1OS(=O)(=O)c1ccccc1[N+](=O)[O-]
 : -2%	-3%	.	?
> O=C(CSc1nc2ccccc2c(=O)n1Cc1ccc(Cl)cc1)NCc1cccs1
 : -3%	-6%	-9	-0.3%
> CCCNC(=O)[C@@H]1CCCN1C(=O)C1CCN(S(=O)(=O)c2ccc(C)cc2)CC1
 : 22%	2%	.	0.5%
> NCCSC1CC(=O)N(Cc2ccc(F)cc2)C1=O (centres undefined)
 : -3%	-2%	-27	2.5%
> CNC(=S)Nc1cc2oc3ccccc3c2cc1OC
 : 5%	-10%	.	?
> O=C(c1noc2c1CCCCC2)N1CCOCC1
 : 2%	-4%	3	6.9%
> CCOc1ccc(NC(=O)COC(=O)c2cc(C)oc2C)cc1
 : 10%	.	.	0.3%
> COc1ccc(-c2cn(-c3ccc(OC)cc3)c3[n+]2-c2ccccc2CC3)cc1
 : 2%	?	-2	0.7%
> O=C(c1cc(S(=O)(=O)N2CCN(c3ccccc3)CC2)ccc1Cl)N1CCCCCCC1
 : -21%	.	.	-1.1%
> CCC1CCCCN1CCCNC(=O)CN1C(=O)CSc2ccc(S(=O)(=O)N3CCOCC3)cc21 (centres undefined)
 : ?	-1%&4%	.	-2.4%
> CCSC1=NCCN1S(=O)(=O)c1ccccc1
 : -4%	-8%	2	-5.7%
> O=C(CN1C(=O)c2cccc([N+](=O)[O-])c2C1=O)N1CCN(S(=O)(=O)c2ccccc2)CC1
 : 14%	.	.	?
> CC(=C1C2C=CC1C1C(=O)NC(=O)C21)c1ccccc1 (centres undefined)
 : 30%	-5%	-4	4.2%
> CC(C)CN(C(=O)CSc1nnc(-c2ccco2)o1)c1c(N)n(Cc2ccccc2)c(=O)[nH]c1=O
 : -9%	-1%	11	5.1%
> CCCCn1c(N)c(N(CC(C)C)C(=O)CSC(C)C(=O)Nc2cc(C)on2)c(=O)[nH]c1=O (centres undefined)
 : -10%	.	.	2.2%
> Nc1nonc1NC(=O)CSc1nc2ccccc2s1
 : -11%	-3%	7	-1.1%
> CC1(C)CC(NS(=O)(=O)c2ccc(Cl)cc2)CC(C)(C)N1
 : 6%	-3%	.	0.5%
> CCOC(=O)c1sc(NC(=O)CN2CCN(c3ccccc3)CC2)nc1C
 : -8%	-4%	.	-1.6%
> COC(=O)c1ccc(C)c(NC(=O)CCc2ccc(OC)c(OC)c2)c1
 : 3%	-6%	4	0.3%
> COc1ccccc1C(=O)N/N=C(\C)c1ccc(NC(=O)Cc2ccccc2)cc1
 : 16%	-26%	.	-0.1%
> COc1ccc(Br)cc1C(=O)NC(=S)Nc1ccc(Cl)c(C(=O)O)c1
 : 1%	4%	-17	0.3%
> CN(C)C(=O)N=NC(=O)N(C)C
 : 27%	.	.	1.2%
> CNc1ccccc1C(C)(C)c1cc(-c2cccc(Br)c2)no1
 : 5%	13%	-6	0.8%
> O=C(Nc1ccc(N2CCOCC2)cc1)c1ccc2c(c1)OCO2
 : 24%	-50%	-12	-0.7%
> COc1ccccc1-n1cc(C(=O)c2cc(Cl)ccc2O)cc(C#N)c1=O
 : -21%	0%	-3	?
> COc1ccccc1C(=O)NCC(=O)OCC(=O)N1CC(C)OC(C)C1 (centres undefined)
 : 3%	.	.	-2.1%
> CCCC(=O)Nc1cccc(-c2nc3ccccc3c(=O)o2)c1
 : 3%	17%	17	1.3%
> COc1cccc(N2CCN(C(=S)NCCc3ccccc3)CC2)c1
 : 12%	-6%	-5	1.3%
> CC(=O)c1ccccc1C(=O)NCc1cccnc1
 : -10%	-1%	7	6.4%
> NC(=O)CC(NC(=O)Cc1ccc(Br)cc1)c1ccc(NCCc2ccc(F)cc2)c([N+](=O)[O-])c1 (centres undefined)
 : -1%	1%	2	-1.0%
> Cc1ccc(S(=O)(=O)N2CCN(C(=O)CSc3nnc(C)c(=O)[nH]3)CC2)cc1
 : 9%	-8%	2	-1.0%

(list continues)
Every second line gives: Rango dissoc inh	miR-21 reporter	GLA inh pH 4.5	Rango complex inh
> N#C/C(=C\c1ccc(OCc2ccc(Br)cc2)cc1)C(=O)Nc1cccc(C(=O)O)c1
 : -9%	-57%	.	-1.8%
> O=C(NCCC1=CCCCC1)C1CC(=O)N(C2CCCCCC2)C1 (centres undefined)
 : -6%	1%	5	0.6%
> CC(=O)c1cc2c(cc1NC(=O)CN1CCOCC1)OCO2
 : 6%	-12%	-4	-5.9%
> CC(=O)NC1=NN(C(C)=O)C2(CCCC2)S1
 : -23%	4%	4	-3.7%
> Cc1c(CC(=O)O)c(=O)oc2cc(OCc3ccc(Br)cc3)ccc12
 : -14%	-35%	.	12%
> O=C(CSc1nnc(C2CCCCC2)o1)Nc1ccccc1Cl
 : -10%	-81%	.	0.1%
> Clc1ccccc1-c1ccc(CN2CCN(c3ccccc3)CC2)o1
 : -1%	-3%	-4	-2.1%
> Cc1nnc(NC2=NCCCCC2)o1
 : -2%	-4%	-12	0.6%
> Cc1ccc2c(Cl)cc(Cl)c(OCC(=O)NC(C)(C)C)c2n1
 : -3%	-16%	4	-1.8%
> CCCCN1C(=O)NC(c2ccc(OC)cc2)C(C(=O)OCc2ccccc2)=C1C (centres undefined)
 : -24%	10%	.	-3.0%
> Cc1csc(SCC(=O)NC(=O)Cc2ccccc2)n1
 : -2%	-1%	-8	-1.8%
> CC(C)=CC(=O)Nc1ccc(Cl)cc1
 : -6%	-47%	1	-0.3%
> Cc1ccc(CS(=O)(=O)CCC(=O)NCCC(C)C)cc1
 : 18%	-7%	8	-0.5%
> S=C(Nc1ccc(Cl)c(Cl)c1)N1CCCC1
 : 2%	-20%	.	4.8%
> O=C(c1ccc2c3c(cccc13)CC2)N1CCOCC1
 : 14%	-10%	3	-7.4%
> Cc1ccc(NC(=O)CSCC(=O)OC(C)C(=O)Nc2ccc(S(N)(=O)=O)cc2)c(C)c1 (centres undefined)
 : 6%	.	.	1.4%
> CC[C@]12C(=O)N(C)C[C@H]([C@@H]3C(=O)N(C)C(=O)[C@@H]31)N2C(=O)c1ccc(C(F)(F)F)cc1
 : 10%	.	.	-2.7%
> COc1cc([C@@H]2OC[C@@H]3[C@H]2CO[C@@H]3c2ccc3c(c2)OCO3)ccc1O
 : -6%	.	.	0.4%
> CC1CCCN(c2nc3c(c(=O)[nH]c(=O)n3C)n2CCSc2nc3ccccc3o2)C1 (centres undefined)
 : -8%	-8%	3	-0.3%
> CC1CCN(CCCCOc2cccc(Br)c2)CC1
 : 0%	0%	-4	4.3%

Compounds listed so far that have two or more sulfur atoms, in the order listed:
Every second line gives: Rango dissoc inh	miR-21 reporter	GLA inh pH 4.5	Rango complex inh
> O=c1c2c(-c3ccco3)csc2nc(SCc2cn3cccnc3n2)n1-c1ccccc1
 : -6%	-48%	1	-3.1%
> CSc1nsc(SC)c1C(=O)N1CCN(S(=O)(=O)c2ccc(C)cc2)C1C(C)C (centres undefined)
 : 2%	5%	-3	7.8%
> CCN(C(=O)CSc1nc2scc(-c3ccccc3)c2c(=O)n1N)C1CCS(=O)(=O)C1 (centres undefined)
 : 21%	.	.	3.1%
> COc1cc(/C=C2\C(=N)N3N=CSC3=NC2=O)ccc1OS(=O)(=O)c1ccccc1[N+](=O)[O-]
 : -2%	-3%	.	?
> O=C(CSc1nc2ccccc2c(=O)n1Cc1ccc(Cl)cc1)NCc1cccs1
 : -3%	-6%	-9	-0.3%
> CCC1CCCCN1CCCNC(=O)CN1C(=O)CSc2ccc(S(=O)(=O)N3CCOCC3)cc21 (centres undefined)
 : ?	-1%&4%	.	-2.4%
> CCSC1=NCCN1S(=O)(=O)c1ccccc1
 : -4%	-8%	2	-5.7%
> Nc1nonc1NC(=O)CSc1nc2ccccc2s1
 : -11%	-3%	7	-1.1%
> Cc1ccc(S(=O)(=O)N2CCN(C(=O)CSc3nnc(C)c(=O)[nH]3)CC2)cc1
 : 9%	-8%	2	-1.0%
> Cc1csc(SCC(=O)NC(=O)Cc2ccccc2)n1
 : -2%	-1%	-8	-1.8%
> Cc1ccc(NC(=O)CSCC(=O)OC(C)C(=O)Nc2ccc(S(N)(=O)=O)cc2)c(C)c1 (centres undefined)
 : 6%	.	.	1.4%

These rows are one share of the data; the hit share may differ from the screen's.
